# A1 inh – blocks A1 activity. MEF A1-2A-BIM cells, caspase-Glo luminescence, 3 h; percent of clofoctol signal, DMSO as zero. caspase activation, % (no concentration beside the values). hit rate 0.51% among 21,000. AID 2241;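 active means most replicate scores above 10, or exactly half above 10 with mean activity above 10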;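 further: effector caspase 3 and 7 activity cleaving a DEVD luciferin substrate; 50 nL library stock added to about 30 µL; numbers are from one replicate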
# BJeLR viability – BJeLR cell viability reduction; BJeLR fibroblasts viability, CellTiterGlo ATP luminescence, 48 h; HRASV12, hTERT and SV40 LT/ST transformed; viability loss activity score, % (no concentration beside the values); hit rate 0.64% among 30,000; AID 2275; in the data active means viability loss activity score above about 50%; about a fifth of its hits are not listed in these tables;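 further: higher score means fewer live cells and less ATP luminescence; stock transfer was 50 or 100 nL into about 30 µL; 0% = vehicle wells and 100% = a reference killing control; one replicate is shown; the record names a cut of 85%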
# Starred values were filed as active, the others as inactive; x = no result given.
SMILES,A1 inh,BJeLR viability
C[C@H](CO)N1C[C@H](C)[C@@H](CN(C)S(=O)(=O)c2ccc(F)cc2)Oc2c(NC(=O)Nc3ccccc3)cccc2C1=O,x,2.7
CNC[C@H]1Oc2c(NC(=O)Nc3ccc(F)cc3)cccc2C(=O)N([C@H](C)CO)C[C@H]1C,x,0.6
O=C(Cn1cccc1C(=O)c1ccccc1)NC1CC1,-0.1,-4.9
COc1ccc(CCN=Cc2ccccc2O)cc1OC,0.2,2.0
C[C@@H]1CN([C@H](C)CO)C(=O)c2cccc(NC(=O)Nc3ccc(F)cc3)c2O[C@H]1CN(C)CC1CC1,x,7.9
COc1ccccc1C(=O)C1C(=O)NC2(C)CC1c1cc(Cl)ccc1O2 (centres undefined),-0.4,-5.8
CCn1cc(CCCC(=O)NCCc2ccc(Cl)cc2)c2ccccc21,0.2,-7.2
Cc1nnc2c(Nc3ccc4c(c3)OCO4)nc3ccccc3n12,x,0.8
C[C@H]1CN([C@@H](C)CO)C(=O)c2cccc(NC(=O)C3CCOCC3)c2O[C@@H]1CN(C)Cc1ccc(Oc2ccccc2)cc1,x,4.1
CC(C)NC(=O)N(C)C[C@@H]1Oc2c(NC(=O)C3CCCCC3)cccc2C(=O)N([C@H](C)CO)C[C@H]1C,x,-0.4
CSc1sc(C(=O)O)c(C)c1S(=O)(=O)c1ccc(Cl)cc1,0.3,2.2
COc1ccc(-c2ccc(=N)n(CCCC(=O)O)n2)cc1,0.1,-3.7
C[C@@H]1CN([C@H](C)CO)C(=O)c2cc(NC(=O)Cn3cnnn3)ccc2O[C@H]1CN(C)C(=O)Nc1ccc(F)cc1,-0.3,0.0
O=C(Nc1cccc2ccccc12)C12CC3CC(CC(C3)C1)C2,0.2,2.1
CCCN1Cc2cccc(C(=O)N3CCN(c4ccccc4)CC3)c2C1=O,x,-4.1
C=CCn1c(C(C)Oc2ccc(Cl)cc2Cl)n[nH]c1=S (centres undefined),-0.9,-2.0
COc1cc2c(cc1OC)C(COc1ccc(F)cc1)N(C(=O)c1ccc(Cl)cc1)CC2 (centres undefined),-0.7,-4.5
C[C@H]1CN([C@@H](C)CO)C(=O)c2cc(NC(=O)Cn3cnnn3)ccc2O[C@@H]1CN(C)Cc1ccc2c(c1)OCO2,0.5,1.3
C[C@H](CO)N1C[C@H](C)[C@@H](CN(C)Cc2ccc(C(F)(F)F)cc2)Oc2c(NC(=O)C3CC3)cccc2C1=O,x,-4.3
O=C(c1cnn2ccccc12)N1CCC(C(O)(c2ccccc2)c2ccccc2)CC1,0.0,9.5
COC(=O)c1ccc(-c2ccco2)n1CC(=O)N1CCCC1,0.4,-0.3
C[C@H]1CN([C@@H](C)CO)C(=O)c2cc(NC(=O)Nc3ccc(C(F)(F)F)cc3)ccc2O[C@@H]1CN(C)C(=O)NC1CCCCC1,0.3,0.5
COc1ccc(S(=O)(=O)Nc2cccc3c2O[C@@H](CN(C)C(=O)Nc2ccc(F)cc2)[C@H](C)CN([C@H](C)CO)C3=O)cc1,x,-1.6
Cc1cc[n+](Cc2ccccn2)c(N)c1,0.4,5.7
CCOC(=O)c1ncn(-c2ccccc2)n1,x,-3.0
C[C@@H]1CN([C@@H](C)CO)C(=O)c2cc(NC(=O)Cc3ccccc3)ccc2O[C@@H]1CN(C)C(=O)Nc1ccc(F)cc1,0.2,-1.5
C[C@H](CO)N1C[C@H](C)[C@@H](CN(C)S(=O)(=O)c2cccs2)Oc2c(NS(=O)(=O)c3ccc(F)cc3)cccc2C1=O,x,2.0
Cc1noc(C)c1S(=O)(=O)Nc1ccc2c(c1)C(=O)N([C@@H](C)CO)C[C@@H](C)[C@H](CN(C)C(=O)NC1CCCCC1)O2,0.9,2.2
CC(Oc1ccccc1Br)C(=O)N1CCc2ccccc21 (centres undefined),0.6,0.1
Cc1noc(C)c1NC(=O)Nc1cccc2c1O[C@@H](CN(C)CC1CC1)[C@H](C)CN([C@H](C)CO)C2=O,x,-1.1

# 2 of the compounds above, with each value named.
Molecule: COc1ccc(S(=O)(=O)Nc2cccc3c2O[C@@H](CN(C)C(=O)Nc2ccc(F)cc2)[C@H](C)CN([C@H](C)CO)C3=O)cc1
  A1 inh: x	BJeLR viability: -1.6
Molecule: Cc1cc[n+](Cc2ccccn2)c(N)c1
  A1 inh: 0.4	BJeLR viability: 5.7

# Next entries:
SMILES,A1 inh,BJeLR viability
CC1(C)CC[C@]2(C(=O)O[C@@H]3O[C@H](CO)[C@@H](O)[C@H](O)[C@H]3O)CC[C@]3(C)C(=CCC4[C@@]5(C)CC[C@H](O[C@@H]6OC[C@H](O)[C@H](O)[C@H]6O[C@@H]6O[C@H](CO)[C@@H](O)[C@H](O)[C@H]6O[C@@H]6OC[C@H](O)[C@H](O)[C@H]6O)[C@@](C)(CO)C5CC[C@]43C)C2C1 (some centres undefined),0.2,-9.9
C[C@@H]1CN([C@H](C)CO)C(=O)c2cc(NS(=O)(=O)c3ccc(F)cc3)ccc2O[C@H]1CN(C)Cc1ccccc1,-0.5,1.4
COc1ccc(NC(=O)Nc2ccc3c(c2)C(=O)N([C@H](C)CO)C[C@@H](C)[C@H](CN(C)S(=O)(=O)c2ccc(F)cc2)O3)cc1,-0.3,-1.1
CCOc1ccc(N=CNc2ccc(OCC)cc2)cc1,-0.8,5.2
CCn1cc(C(=O)O)c(=O)c2cc(F)c(N3CCNCC3)cc21,-0.7,-2.8
Cc1cc(C(=O)Nc2cccc3c2O[C@H](CN(C)Cc2ccc(Oc4ccccc4)cc2)[C@H](C)CN([C@H](C)CO)C3=O)n(C)n1,x,-6.8
CCn1c(SCc2ccc(Br)cc2)nnc1-c1ccncc1,0.5,6.9
O=c1[nH]nc(SCc2ccccc2)c(=S)[nH]1,-4.3,1.0
Cc1nc2ccccn2c1-c1ccnc(SCC(=O)c2ccc(Cl)cc2)n1,2.7,3.9
C[C@H](CO)N1C[C@H](C)[C@@H](CN(C)C(=O)Nc2cccc3ccccc23)Oc2ccc(NC(=O)NC3CCCCC3)cc2C1=O,0.0,2.7
C[C@H](CO)N1C[C@H](C)[C@@H](CN(C)Cc2ccc(C(=O)O)cc2)Oc2c(NS(=O)(=O)c3ccccc3)cccc2C1=O,x,4.7
C[C@H](CO)N1C[C@H](C)[C@H](CN(C)C)Oc2c(NS(=O)(=O)c3ccccc3)cccc2C1=O,x,-2.1
CNC[C@@H]1Oc2ccc(NC(=O)Cc3ccccc3)cc2C(=O)N([C@@H](C)CO)C[C@H]1C,0.8,-3.1
C[C@H](CO)N1C[C@H](C)[C@H](CN(C)Cc2ccc(C(=O)O)cc2)Oc2ccc(NC(=O)Cc3ccccc3)cc2C1=O,-0.4,1.4
COc1ccc(S(=O)(=O)N(C)C[C@H]2Oc3ccc(NS(=O)(=O)c4ccccc4)cc3C(=O)N([C@@H](C)CO)C[C@H]2C)cc1,1.2,3.6
CC(=O)O[C@@H]1[C@@H](OC(=O)/C=C/c2ccccc2)[C@@H](OC(C)=O)[C@H](O[C@H]2[C@@H]3C=CO[C@@H](O[C@@H]4O[C@H](CO)[C@@H](O)[C@H](O)[C@H]4O)[C@@H]3[C@@]3(CO)O[C@@H]23)O[C@H]1C,0.3,-1.4
OC(c1nc2ccccc2[nH]1)C(O)C(O)C(O)c1nc2ccccc2[nH]1 (centres undefined),0.1,0.7
FC(F)(F)c1cc(-c2cn3ccccc3n2)cc(C(F)(F)F)c1,-1.3,4.1
CNC[C@@H]1Oc2c(NC(=O)c3cnccn3)cccc2C(=O)N([C@H](C)CO)C[C@@H]1C,x,-6.7
C[C@@H]1CN([C@H](C)CO)C(=O)c2cc(NS(=O)(=O)c3cccs3)ccc2O[C@H]1CN(C)Cc1ccccc1,-0.1,-1.9
C[C@@H]1CN([C@@H](C)CO)C(=O)c2cc(NC(=O)Cn3cnnn3)ccc2O[C@H]1CN(C)S(=O)(=O)c1cccs1,0.5,0.3
CC(C)NC(=O)Nc1ccc2c(c1)C(=O)N([C@@H](C)CO)C[C@H](C)[C@@H](CN(C)Cc1ccc(-c3ccccc3)cc1)O2,0.8,-3.5
Cc1cccc(C)c1OCc1nnc(CCc2ccccc2)o1,-0.2,1.7
C[C@H](CO)N1C[C@H](C)[C@H](CN(C)Cc2ccc(-c3ccccc3)cc2)Oc2ccc(NS(=O)(=O)c3ccc(Cl)cc3)cc2C1=O,-0.8,-0.4
C=CCSc1ncnc2c1sc1nc(N3CCOCC3)c3c(c12)CCCC3,-1.0,2.1
C[C@@H]1CN([C@@H](C)CO)C(=O)c2cccc(N(C)C)c2O[C@H]1CN(C)C(=O)Nc1ccc(C(F)(F)F)cc1,x,2.2
C[C@@H]1CN([C@H](C)CO)C(=O)c2cc(NC(=O)CCC(F)(F)F)ccc2O[C@@H]1CN(C)Cc1ccc2c(c1)OCO2,-0.4,-1.4
C[C@@H]1CN([C@@H](C)CO)C(=O)c2cccc(NC(=O)Nc3ccc4c(c3)OCO4)c2O[C@@H]1CN(C)Cc1ccc(C(F)(F)F)cc1,x,-11.3
CC(C)NC(=O)N(C)C[C@@H]1Oc2ccc(NS(C)(=O)=O)cc2C(=O)N([C@@H](C)CO)C[C@@H]1C,0.9,3.0
COc1cc(NC(=O)COc2ccc(F)cc2)nc(OC)n1,0.0,0.8
COc1ccc(NC(=O)N(C)C[C@@H]2Oc3c(NS(=O)(=O)c4cn(C)cn4)cccc3C(=O)N([C@H](C)CO)C[C@@H]2C)cc1,x,0.5
CC(C)(C)NS(=O)(=O)c1cccs1,x,-1.1
O=S(=O)(Cc1ccccc1)c1ccc(C(F)(F)F)cn1,0.1,-5.6
Cn1cc(S(=O)(=O)Nc2ccc(Oc3c(Cl)cccc3Cl)nc2)cn1,-0.1,3.1
CN(C)c1ncnc2c1ncn2C1OC(CO)C(N)C1O (centres undefined),0.8,19.6
Cc1ccc(-n2nc(C)c3c(C)onc3c2=O)cc1,-0.2,-1.9
CC1CN(c2ccc(NC(=S)NCc3ccco3)cc2)CC(C)O1 (centres undefined),-0.5,1.2
Cc1c(O)c(-c2ccccc2)c(=O)n(-c2ccccn2)c1-c1ccccc1,-0.2,0.5
CCOC(=O)C1CCCN(C(=O)c2ccccc2OCC)C1 (centres undefined),-0.3,5.8
COc1cccc(NC(=O)Cn2cc(C(=O)c3ccccc3)c(=O)c3cc(OC)ccc32)c1,x,0.1
CCc1ccc(C2CC(c3ccccc3)n3ncnc3N2)cc1 (centres undefined),x,-5.4
CC(C)NC(=O)N(C)C[C@@H]1Oc2ccc(NS(=O)(=O)c3ccc(F)cc3)cc2C(=O)N([C@H](C)CO)C[C@@H]1C,0.3,1.7
C[C@H](CO)N1C[C@H](C)[C@@H](CN(C)C(=O)Nc2cccc3ccccc23)Oc2ccc(NS(=O)(=O)c3ccccc3)cc2C1=O,0.3,-3.2
COc1ccc(-n2nc(C(=O)NC3CCCC(C)C3C)c3c4ccccc4n(C)c3c2=O)cc1 (centres undefined),x,0.7
C[C@H]1CN([C@@H](C)CO)C(=O)c2cc(NC(=O)c3ccncc3)ccc2O[C@@H]1CN(C)CC1CCCCC1,-0.3,-2.9
Cc1occc1C(=O)Nc1ccc(N(C)C)cc1,x,39.4
Cc1c(C(=O)Nc2ccccc2Br)oc2ccc(S(=O)(=O)N3CCCC3)cc12,60.0*,-0.8
C[C@@H]1CN([C@@H](C)CO)C(=O)c2cc(N(C)C)ccc2O[C@@H]1CN(C)S(=O)(=O)c1ccc(F)cc1,0.2,-4.1
C[C@@H]1CN([C@@H](C)CO)C(=O)c2cc(NS(=O)(=O)c3ccccc3)ccc2O[C@H]1CN(C)Cc1ccc(Oc2ccccc2)cc1,1.1,7.7
C[C@H]1CN([C@@H](C)CO)C(=O)c2cc(NC(=O)CCC(F)(F)F)ccc2O[C@H]1CN(C)Cc1ccc(-c2ccccc2)cc1,0.4,-0.1
# (list continues)
SMILES,A1 inh,BJeLR viability
CCOC(=O)C1CCCN(C(=S)Nc2cccc(Cl)c2)C1 (centres undefined),-0.8,-7.3
CCc1c(C)c(C#N)c2nc3ccccc3n2c1NCCC(C)C,0.2,-2.9
COc1ccc(CN(C)C[C@H]2Oc3ccc(NC(=O)Cc4ccccc4)cc3C(=O)N([C@H](C)CO)C[C@H]2C)cc1,0.4,-0.9
C[C@H]1CN([C@@H](C)CO)C(=O)c2cc(NC(=O)CCC(F)(F)F)ccc2O[C@H]1CN(C)Cc1ccc(C(=O)O)cc1,0.2,-4.6
O=C(O)[C@H]1O[C@@H](Oc2cc(O)c3c(=O)c(-c4ccc(O)cc4)coc3c2)[C@H](O)[C@@H](O)[C@@H]1O,-0.8,4.7

# Entries listed so far that contain a CF3 group:
SMILES,A1 inh,BJeLR viability
C[C@H](CO)N1C[C@H](C)[C@@H](CN(C)Cc2ccc(C(F)(F)F)cc2)Oc2c(NC(=O)C3CC3)cccc2C1=O,x,-4.3
C[C@H]1CN([C@@H](C)CO)C(=O)c2cc(NC(=O)Nc3ccc(C(F)(F)F)cc3)ccc2O[C@@H]1CN(C)C(=O)NC1CCCCC1,0.3,0.5
FC(F)(F)c1cc(-c2cn3ccccc3n2)cc(C(F)(F)F)c1,-1.3,4.1
C[C@@H]1CN([C@@H](C)CO)C(=O)c2cccc(N(C)C)c2O[C@H]1CN(C)C(=O)Nc1ccc(C(F)(F)F)cc1,x,2.2
C[C@@H]1CN([C@H](C)CO)C(=O)c2cc(NC(=O)CCC(F)(F)F)ccc2O[C@@H]1CN(C)Cc1ccc2c(c1)OCO2,-0.4,-1.4
C[C@@H]1CN([C@@H](C)CO)C(=O)c2cccc(NC(=O)Nc3ccc4c(c3)OCO4)c2O[C@@H]1CN(C)Cc1ccc(C(F)(F)F)cc1,x,-11.3
O=S(=O)(Cc1ccccc1)c1ccc(C(F)(F)F)cn1,0.1,-5.6
C[C@H]1CN([C@@H](C)CO)C(=O)c2cc(NC(=O)CCC(F)(F)F)ccc2O[C@H]1CN(C)Cc1ccc(-c2ccccc2)cc1,0.4,-0.1
C[C@H]1CN([C@@H](C)CO)C(=O)c2cc(NC(=O)CCC(F)(F)F)ccc2O[C@H]1CN(C)Cc1ccc(C(=O)O)cc1,0.2,-4.6

# Assay outcomes as filed in PubChem.

# A portion of the library; rates above refer to the full screens.
